# T cruzi inh: blocks replication of Trypanosoma cruzi | actives 1.4% (n = 300,000) | AID 1885 | inhibition, % (concentration not given with the values) | T. cruzi beta-gal in NIH3T3, luminescence, 90 h;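 active means mean inhibition across valid replicates above about 55%, limit read from the data; inconclusive means mean below that limit but half or more replicates reach it; inactive means mean below it, under half of replicates reach it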;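 further: signal also drops with host cell toxicity which is not excluded here; 0% = plate median of DMSO wells and 100% = zero luminescence signal; higher percent means less beta-gal luminescence so fewer parasites; stock transfer was 50 nL into about 50 µL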
# LANA-H2A inh: blocks KSHV LANA binding to histone H2A/H2B; actives 0.6% (n = 320,000); cell-free LANA-H2A/H2B peptide, fluorescence polarization; Q9QR71; inhibition, % (concentration not given with the values); in the data active means inhibition mostly above about 10%, no sharp cut-off; inactive means mostly below about 6.7%;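 further: stock transfer was 7.5 nL into about 10 µL; 0% = median of vehicle wells and 100% = median of positive control wells; one replicate is shown; the record names a cut of 25% in any replicate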
# B2AR ag: human beta-2 adrenergic receptor agonism by FAP; Am2.2-beta2AR cells, FAP receptor internalization, flow cytometry; reference of the scale not given here; response, % (no concentration beside the values); actives 0.43% (n = 340,000); AID 504454;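 active means response above a set limit, near 3 SD of response in nonfluorescent compounds, cut at about 42% in these data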;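 further: stock transfer was 100 nL into about 11 µL; a reference agonist was the positive control; negative values mostly stem from fluorescent compounds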
# Target sequence (P07550 whole entry, looked up): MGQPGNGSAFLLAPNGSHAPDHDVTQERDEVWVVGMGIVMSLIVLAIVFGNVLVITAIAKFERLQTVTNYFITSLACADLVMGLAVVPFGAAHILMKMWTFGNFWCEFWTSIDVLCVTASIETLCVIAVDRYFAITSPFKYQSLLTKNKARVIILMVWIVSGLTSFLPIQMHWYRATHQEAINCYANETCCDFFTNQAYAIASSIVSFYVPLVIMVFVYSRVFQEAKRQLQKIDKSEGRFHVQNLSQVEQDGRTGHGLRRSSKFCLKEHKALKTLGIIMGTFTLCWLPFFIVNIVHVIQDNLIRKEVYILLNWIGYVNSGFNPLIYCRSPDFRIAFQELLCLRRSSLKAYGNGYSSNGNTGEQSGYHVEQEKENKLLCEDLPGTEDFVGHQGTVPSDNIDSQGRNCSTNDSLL
# Beta cell apopt: beta cell apoptosis inhibition | protection from apoptosis, % (test concentration not listed) | INS-1E cytokine-induced death, ATP luminescence, 48 h; percent of positive-control rescue, neutral wells zero | AID 435005 | actives 0.8% (n = 300,000);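 active means all replicates at 75% or more, or half of them and the mean; inconclusive means half reach 75% but not the mean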;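 further: 0% = cytokine-treated negative control wells and 100% = positive control rescue; higher means more ATP so stronger rescue from cytokine killing; wells of about 40 µL received 100 nL stock; the first replicate is given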
# ALR H2O2 inh: human ALR oxidase inhibition via reduced H2O2; P55789; purified ALR, DTT oxidation, H2O2 HRP-luminol luminescence; inhibition, % (concentration not given with the values); actives 3.8% (n = 290,000);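 active means mean and each replicate at 75% or more; inconclusive means only one of the two met; inactive means neither met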;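 further: stock transfer was 7.5 nL into about 7.5 µL; 0% = neutral wells and 100% = wells with inactivated enzyme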
# Target sequence (P55789 whole entry, looked up): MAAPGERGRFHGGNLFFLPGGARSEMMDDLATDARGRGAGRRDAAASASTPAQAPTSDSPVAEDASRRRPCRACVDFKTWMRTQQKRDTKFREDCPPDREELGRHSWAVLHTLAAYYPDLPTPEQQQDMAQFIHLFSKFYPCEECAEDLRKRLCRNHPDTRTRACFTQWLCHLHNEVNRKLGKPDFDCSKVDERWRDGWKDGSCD
# Ecoli rRNA inh: selective bacterial rRNA inhibition in E. coli; E. coli WT GFP vs humanized-ribosome RFP mutants, fluorescence, 24 h; hits give low values; DMSO median 0, no signal -100; GFP signal change (wild-type ribosome), % (no concentration beside the values); actives 1.6% (n = 350,000);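 active means significant combined selectivity score with lowered wild-type GFP, culture density cut under 30%, mutant RFP and density less affected; inactive means any of these conditions unmet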; further: one replicate is shown; some compounds called inactive have numbers as strong as hits
# Calb FLC: affects C. albicans growth with fluconazole. C. albicans CaCi-2 (fluconazole-resistant clinical isolate) + fluconazole, Alamar Blue growth, 48 h. growth inhibition, % (test concentration not listed). actives 0.57% (n = 300,000). AID 1979;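 active means most replicates above 75%; inconclusive means exactly half above 75%; inactive means most below 75%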;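 further: all wells also contain fluconazole at 8 µg/ml as a sub-toxic cotreatment; 0% = median of DMSO wells and 100% = median of geldanamycin control wells; wells of about 8 µL received 7.5 nL stock; the first replicate is given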
# A1 inh: inhibitors of the anti-apoptotic protein A1, read as caspase activation. MEF A1-2A-BIM cells, Caspase-Glo 3/7 luminescence, 3 h; percent of clofoctol response, vehicle zero. actives 0.066% (n = 330,000). caspase activation, % (test concentration not listed). AID 2462;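 active means over half of replicate activation scores above 10%, or exactly half above 10 with the replicate mean above 10; inconclusive means replicate mean below 10 yet half the replicates above 10; inactive means over half of replicates below 10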;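 further: wells of about 30 µL received 50 nL stock; many hits fall short of the cut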
# Ecoli rRNA inh OD600: also measured in Ecoli rRNA inh; calls as there; OD600 change, %; measured here: OD600 growth;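 optical density of the mix in the first replicate; 0 = DMSO median and -100 = no signal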
# Ecoli rRNA inh RFP: second read-out of Ecoli rRNA inh, no call of its own (marks repeat the call); RFP signal change, %; measured here: RFP humanized mutant strains;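 first replicate; 0 = DMSO median and -100 = no signal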
# * marks the source's active call; other numbers are inactive results; ? = inconclusive; . = no result given. The list is partial. The share of hits here may be higher or lower than overall.
SMILES,T cruzi inh,LANA-H2A inh,B2AR ag,Beta cell apopt,ALR H2O2 inh,Ecoli rRNA inh,Ecoli rRNA inh OD600,Ecoli rRNA inh RFP,Calb FLC,A1 inh
Cc1ccc(N2C(=O)NC(=O)/C(=C\c3cc(C)n(-c4cc(C(=O)O)cc(C(=O)O)c4)c3C)C2=O)cc1,-7,2.5,-3,.,39,11,-1,10,11,0.4
CC1(C)CC(CCNCc2ccc3c(c2)OCO3)(Cc2ccccc2)CCO1 (configuration not stated),18,-3.5,5,-7,-8,3,-2,0.4,-1,-0.5
Cc1cc(C)[n+](CCCC[n+]2c(C)cc(C)cc2C)c(C)c1,-21,-0.5,1,0,3,5,11,-8.4,3,-0.4
CCOC(=O)c1c(/N=C/C2C(=O)NC(=S)NC2=O)sc2c1CCC2,-24,-4.0,1,-2,-11,.,.,.,22,0.3
O=c1[nH]c(=O)n(Cc2ccc(F)cc2)c(O)c1C=NCCCn1ccnc1,-3,0.9,-3,-14,-12,.,.,.,13,0.1
CC(C)c1ccc(N=Cc2c(O)n(C3CC3)c(=S)[nH]c2=O)cc1,-37,-2.1,-5,10,-9,7,-29,-1.6,3,0.4
CCC(C)n1c(O)c(/C=N/Nc2ccccc2)c(=O)[nH]c1=S (configuration not stated),-5,0.3,0,2,100*,.,.,.,9,-1.4
CCC(=NCc1cc(OC)cc(OC)c1)c1c(O)n(C)c(=O)n(C)c1=O,-6,7.2,6,23,-3,.,.,.,-3,-0.5
C=CCN1C(=O)NC(=O)/C(=C/c2cc3c4c(c2)CCCN4CCC3)C1=O,-8,7.5,2,1,99*,.,.,.,3,-0.5
CN1CCN(/N=C/c2c(O)n(Cc3ccc(F)cc3)c(=O)[nH]c2=O)CC1,26,1.4,-1,12,59,12,10,4.3,6,-0.4
CCCCN1CCC(O)(c2ccccc2)C(C(=O)c2ccccc2)C1 (configuration not stated),9,2.2,6,-8,35,.,.,.,1,0.4
O=C(c1cc(-c2cccnc2)nc2ccc(Cl)cc12)N1CCC2(CC1)OCCO2,-1,0.6,5,-20,-12,.,.,.,-2,1.6
CC(=O)Nc1cc(C(=O)N2CCC3(CC2)OCCO3)ccc1S(=O)(=O)c1ccc(Cl)cc1,-16,-2.9,-5,-2,-3,.,.,.,20,0.9
C/C(=N\NC(=O)c1ccncc1)c1c(O)n(-c2ccccc2)c(=O)[nH]c1=O,1,9.2,-4,-4,2,19,20,1.6,9,0.7
N#Cc1ccccc1Cn1cc(C(=O)c2ccccc2F)c2ccccc21,-62,-3.2,10,4,-4,.,.,.,-11,0.4
CN1CCC(N(C)c2nc(-c3ccccc3)nc3ccccc23)CC1,25,-4.2,15,10,-4,13,13,0.5,-1,0.1
Cn1c(O)c(C(=NCCc2c[nH]c3ccccc23)c2ccccc2)c(=O)n(C)c1=O,6,4.4,-7,-2,.,4,1,2.8,31,-2.0
c1ccc2oc(N3CCNCC3)nc2c1,2,-4.0,0,1,-3,.,.,.,-1,1.4
Cc1cnc[nH]1,.,6.4,-1,-4,3,8,2,-0.5,.,0.9
O=C(Cc1ccccc1)OCn1nnc2ccccc2c1=O,6,-1.0,5,0,3,-1,-3,-2.9,11,-0.2
CC(C)n1cc(C(=O)N(CC(=O)NC2CCCC2)Cc2ccccc2)cn1,-24,0.2,2,1,-35,.,.,.,-31,0.3
COc1ccc(-c2[nH]ncc2CNC(C)Cc2cccc(C)n2)cc1F (configuration not stated),-2,-11,-1,2,-4,1,0,-4.7,-5,0.7
O=C(CN1CCCCC1)c1ccc2c(c1)OCO2,-13,5.3,-4,.,-12,-6,-8,-3.6,5,0.0
CCOC(=O)c1c(/N=C/C2C(=O)NC(=S)NC2=O)sc(C)c1C,-4,-1.7,.,.,71,.,.,.,-7,-0.2
OCC#CC[N+]1(CC#Cc2ccccc2)CCOCC1,-2,0.9,0,-8,0,10,10,3.2,-4,-0.2

# Entries from the list above that contain a Cl atom (two):
SMILES,T cruzi inh,LANA-H2A inh,B2AR ag,Beta cell apopt,ALR H2O2 inh,Ecoli rRNA inh,Ecoli rRNA inh OD600,Ecoli rRNA inh RFP,Calb FLC,A1 inh
O=C(c1cc(-c2cccnc2)nc2ccc(Cl)cc12)N1CCC2(CC1)OCCO2,-1,0.6,5,-20,-12,.,.,.,-2,1.6
CC(=O)Nc1cc(C(=O)N2CCC3(CC2)OCCO3)ccc1S(=O)(=O)c1ccc(Cl)cc1,-16,-2.9,-5,-2,-3,.,.,.,20,0.9

# More results.
SMILES,T cruzi inh,LANA-H2A inh,B2AR ag,Beta cell apopt,ALR H2O2 inh,Ecoli rRNA inh,Ecoli rRNA inh OD600,Ecoli rRNA inh RFP,Calb FLC,A1 inh
C#C[C@@]1(O)CCC2C3CCC4=C/C(=N/OCC(=O)NC(C(=O)NC(CC(C)C)C(=O)O)C(C)C)CC[C@]4(C)C3CC[C@@]21C (some centres not stated),17,-2.4,-4,2,0,-2,-4,3.5,5,0.7
C[N+](C)(C)CCc1ccc(O)cc1,-1,11*,4,3,-17,5,4,2.4,5,0.0
Nc1c(C(=O)NCCN2CCOCC2)c2nc3ccccc3nc2n1Cc1ccccc1,15,4.1,-6,-4,-7,-36*,-5.7*,-1.9*,0,0.2
Fc1ccc(N2CCN(Cc3cc4c(cc3Br)OCO4)CC2)cc1,26,-0.1,4,1,35,-11,-16,-2.5,-14,0.5
CCCCn1c(=O)c(C(=O)Nc2ccccc2Cl)c(O)c2ccccc21,-4,-0.6,7,.,-7,0,10,1.3,-5,-0.1
O=C1N=c2ccccc2=C/C1=C\c1c(O)[nH]c(=S)[nH]c1=O,-14,-2.0,-4,-4,23,6,10,9.6,-14,?
C/C(CC(c1ccccc1)c1c(O)c2ccccc2oc1=O)=N\Nc1ccc([N+](=O)[O-])cc1[N+](=O)[O-] (configuration not stated),11,-3.3,-1,10,13,-3,-6,-2.4,-3,-0.4
C=CCn1c(O)c(C(CC)=NCCCO)c(=O)[nH]c1=O,-14,0.7,2,-5,-6,.,.,.,-1,0.4
COc1c(C)cc(C(=O)C2CCCN(C3CCOCC3)C2)cc1C (configuration not stated),8,4.8,58*,-9,1,.,.,.,-22,1.3
CCOC(=O)c1c(C)n(Cc2ccccc2)c2ccc(OCC(O)CN3C(=O)CNC3=O)cc12 (configuration not stated),12,-3.5,16,.,-10,-7,-11,6.5,-7,-0.3
O=c1c2ccccc2nc(CN2CCCCCC2)n1-c1ccc(F)cc1,.,0.0,-3,0,-6,7,-8,0.0,-13,0.3
CC(C)NC(C)C(=O)c1ccc2ccccc2c1 (configuration not stated),-6,-8.6,-4,-10,-21,7,10,1.2,-8,0.3
Cc1cc(OCC(=O)NCC2CCC(C(=O)O)CC2)c2c3c(c(=O)oc2c1)CCC3 (configuration not stated),-13,3.2,1,-4,.,-4,6,-1.5,4,-0.7
CC(=O)N1CCCSC1=Nc1ccccc1,0,-0.1,10,-9,.,-5,4,-2.8,-8,0.9
COc1ccc(-n2c(/C=C3\C(=O)Nc4ccccc43)nc3ccccc3c2=O)cc1,48,-3.0,2,10,2,17,14,5.3,-16,-0.9
CC(=O)N1CCC2(CC1)CC(=O)c1cc(OCC(=O)N3CCN(C)CC3)ccc1O2,2,1.4,4,-2,-2,.,.,.,-4,0.6
CCCCCCn1c(=O)c(C(=O)Nc2cccc(C)n2)c(O)c2ccccc21,2,-1.8,6,.,-8,.,.,.,3,-0.7
O=C(NC1CC1)C1CSC(c2cccnc2)=N1 (configuration not stated),-4,-3.3,-3,-1,-14,.,.,.,-5,1.0
O=C(C1CCC(=O)N1C1CCCC1)N1CCC2(CC1)OCCO2 (configuration not stated),-10,3.9,-4,-12,-21,.,.,.,0,1.7
Cc1cccc(OP(=O)(NCc2ccccc2)Oc2cccc(C)c2)c1,14,-3.1,22,6,-6,-18,-23,-18,-19,-0.3
COc1cccc(NC2=NCCCS2)c1,-16,-9.6,-10,-3,.,5,9,0.2,5,-0.1
CC1=NCCc2c1[nH]c1cc(O)ccc21,.,142*,-18,7,99*,.,.,.,.,-0.2
C[C@@H]1C[C@H]2OC(=O)C3(CO3)[C@H]2[C@H](O)[C@]2(C)C(=O)C3OC3[C@@H]12 (some centres not stated),-41,9.1,.,-8,54,.,.,.,16,0.7
O=C(COc1ccc2ccc(=O)oc2c1)N1C[C@H]2C[C@@H](C1)c1cccc(=O)n1C2,-1,2.4,3,-5,.,.,.,.,1,-0.4
CN1CCC(OC(=O)Cc2ccccc2)CC1,33,1.0,-15,3,-18,.,.,.,32,0.6

# (more compounds)
SMILES,T cruzi inh,LANA-H2A inh,B2AR ag,Beta cell apopt,ALR H2O2 inh,Ecoli rRNA inh,Ecoli rRNA inh OD600,Ecoli rRNA inh RFP,Calb FLC,A1 inh
CN(C)C(=O)Oc1cccc(OCc2n(C)c3ccccc3[n+]2C)c1,-10,2.2,0,-11,-17,3,-1,-1.2,-5,0.3
CNC(=O)Oc1ccc(C(=O)N2c3ccccc3NC(=O)C2C)cc1 (configuration not stated),-3,1.2,-12,-3,-2,6,10,-2.7,7,0.4
CC(Cc1cnccn1)NCc1c(C(=O)N2CCCCCCC2)nc2ccc(Cl)cn12 (configuration not stated),15,-2.7,7,-1,2,10,6,-0.4,-10,-2.3
O=C(COC(=O)Cc1ccccc1)NCCNC(=O)COC(=O)Cc1ccccc1,-5,.,-4,0,.,3,4,-3.1,3,0.1
OC(c1ccccc1)(c1ccc(Cl)cc1)C1CN2CCC1CC2 (configuration not stated),7,0.4,10,-2,-10,.,.,.,4,0.1
Cc1nn(Cc2ccccc2)c(Cl)c1C(=O)OCC(=O)Nc1cccc2ccccc12,-18,0.4,6,14,-5,3,8,-1.3,4,-0.6
CN1C(=O)C(=Cc2ccc(Sc3ccccc3)o2)C(=O)N(C)C1=S,-4,-2.7,9,-6,31,6,-2,1.6,7,0.7
O=C(c1cc2cc(F)ccc2[nH]1)N1CCC2(CC1)OCCO2,-2,4.0,-2,-1,-4,0,1,1.7,4,0.6
CCOc1ccc(Cl)cc1CNCCc1ccc(F)cc1,41,-0.5,8,20,.,3,-4,-1.3,5,0.2
CCC1(c2ccccc2)C(=O)N(C)C(=O)N(C)C1=O,-7,1.7,6,-10,0,.,.,.,-10,-0.1
CC/C(CC(c1ccccc1)c1c(O)c2ccccc2oc1=O)=N\NC(N)=S (configuration not stated),-6,-4.9,-2,1,6,.,.,.,28,0.8
O=C(NC1CC2CCCC(C1)N2)c1ccccc1 (configuration not stated),7,0.3,-6,-1,-6,0,0,-4.0,-11,0.5
O=c1c2ccccc2nc(/C=C/c2ccc(F)cc2)n1-c1ccccn1,-9,-3.6,.,-4,-40,.,.,.,-3,0.4
COc1ccc(C(=O)C23CN4CN(CN(C4)C2)C3)cc1,-1,0.2,2,-9,-1,25,19,0.5,?,-0.1
CCn1c(O)c(C=Nc2ccc(S(N)(=O)=O)cc2)c(=O)[nH]c1=S,-16,0.0,4,-7,1,.,.,.,1,1.1
Cn1cc(C(=O)NP(=O)(N2CCOCC2)N2CCOCC2)c2ccccc21,-16,1.5,-5,-2,2,10,6,0.2,-1,0.4
COc1ccc(-c2nn(CCC#N)cc2C(=O)NCc2ccccc2)cc1OC,1,-1.4,1,-12,0,-2,4,0.2,-2,-0.4
